A1 apoptosis 2: A1 inhibitors via caspase activation, primary screen, cell-based, luminescence, HTS, two replicates. MEF A1-2A-BIM cells, caspase-Glo luminescence, 3 h; percent of clofoctol response, DMSO zero. caspase activation, % (no concentration beside the values). 24,000 tested, under 10 active. AID 2465, 2010; in the data active = caspase activation above about 5.9%;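 also: wells of about 30 µL received 50 nL stock; the first replicate is given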
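Material: A1-2A-BIM-expressing MEF cells. Buffer or medium: RPMI-1640 plus 10% FBS. Incubation: cells settled overnight, compound exposure 3 h at 37 °C, 5% CO2. Signal: Caspase-Glo 3/7 luminescence, 1 h at room temperature.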
* marks the source's active call; other numbers are inactive results. This is a subset; count on the stated rates, not on these rows.

SMILES | A1 apoptosis 2
C[C@H]1CCCCO[C@H](CN(C)S(=O)(=O)c2ccc(F)cc2)[C@@H](C)CN([C@@H](C)CO)C(=O)c2cc(NS(=O)(=O)c3ccc(F)cc3)ccc2O1 | 0.9
COc1ccc(NC(=O)Nc2ccc3c(c2)C(=O)N([C@H](C)CO)C[C@@H](C)[C@H](CN(C)C)O3)cc1 | -0.5
Cc1ccc(S(=O)(=O)Nc2ccc3c(c2)CC(=O)N([C@H](C)CO)C[C@@H](C)[C@H](CN(C)S(=O)(=O)c2cn(C)cn2)O3)cc1 | 2.2
C[C@H]1CN([C@@H](C)CO)C(=O)c2cccc(NC(=O)C3CCOCC3)c2O[C@H]1CN(C)Cc1ccc(C(=O)O)cc1 | 0.8
Cc1noc(C)c1S(=O)(=O)Nc1ccc2c(c1)C(=O)N([C@@H](C)CO)C[C@@H](C)[C@H](CN(C)S(=O)(=O)c1ccc(Cl)cc1)O2 | -0.6
CNC[C@H]1OCCCC[C@H](C)Oc2ccc(NC(=O)C3CCCCC3)cc2C(=O)N([C@H](C)CO)C[C@@H]1C | 0.6
C[C@@H]1CN([C@H](C)CO)C(=O)CCCn2cc(nn2)CO[C@@H]1CN(C)Cc1cccc(C(F)(F)F)c1 | -0.7
C[C@@H]1CN([C@@H](C)CO)C(=O)c2cc(NC(=O)c3ccncc3)ccc2O[C@@H]1CN(C)S(=O)(=O)c1ccccc1 | -0.9
Cc1noc(C)c1S(=O)(=O)Nc1cccc2c1O[C@@H](CN(C)Cc1ccncc1)[C@@H](C)CN([C@H](C)CO)C2=O | -0.3
CC(C)NC(=O)Nc1ccc2c(c1)C(=O)N([C@H](C)CO)C[C@@H](C)[C@@H](CN(C)Cc1ccncc1)OCCCC[C@H](C)O2 | 1.1
COc1ccc(S(=O)(=O)Nc2ccc3c(c2)C(=O)N([C@@H](C)CO)C[C@@H](C)[C@H](CN(C)C(=O)Nc2ccc(F)cc2)O3)cc1 | 2.2
C[C@@H]1CCCCO[C@H](CN(C)CC2CCCCC2)[C@H](C)CN([C@H](C)CO)C(=O)c2cc(NC(=O)Nc3ccc(C(F)(F)F)cc3)ccc2O1 | 2.1
C[C@@H]1CN([C@H](C)CO)C(=O)c2cccc(NS(=O)(=O)c3ccc(Cl)cc3)c2O[C@@H]1CN(C)C(=O)Nc1cccc2ccccc12 | -1.6
C[C@H](CO)N1C[C@H](C)[C@@H](CN(C)Cc2ccc(Oc3ccccc3)cc2)Oc2ccc(NC(=O)Nc3ccc(F)cc3)cc2C1=O | -0.8
Cc1noc(C)c1S(=O)(=O)Nc1ccc2c(c1)CC(=O)N([C@H](C)CO)C[C@@H](C)[C@@H](CN(C)C(=O)Nc1ccc(C(F)(F)F)cc1)O2 | -1.3
C[C@@H]1CN([C@@H](C)CO)C(=O)c2cc(NC(=O)Nc3ccc4c(c3)OCO4)ccc2O[C@@H](C)CCCCO[C@@H]1CN(C)Cc1ccc2c(c1)OCO2 | -0.5
CC(C)NC(=O)Nc1cccc2c1O[C@@H](CN(C)S(=O)(=O)c1cccs1)[C@@H](C)CN([C@@H](C)CO)C2=O | -0.2
C[C@@H]1CN([C@H](C)CO)C(=O)c2cccc(NC(=O)c3ccncc3)c2O[C@@H]1CN(C)C(=O)Nc1ccc(F)cc1 | -1.6
C[C@@H]1CN([C@H](C)CO)C(=O)CCCn2cc(nn2)CO[C@H]1CN(C)C(=O)c1ccc2ccn(C)c2c1 | 0.8
C[C@@H]1CN([C@H](C)CO)C(=O)c2cc(NC(=O)CCCCCC(=O)Nc3ccccc3N)ccc2O[C@@H](C)CCCCO[C@@H]1CN(C)C(=O)C1CCCCC1 | 0.1
C[C@H](CO)N1C[C@H](C)[C@@H](CN(C)C(=O)NC2CCCCC2)OCCCC[C@H](C)Oc2ccc(NC(=O)C3CCCCC3)cc2C1=O | 0.2
C[C@@H]1CCCCO[C@H](CN(C)S(=O)(=O)c2ccccc2)[C@@H](C)CN([C@@H](C)CO)C(=O)c2cc(NC(=O)c3ccncc3)ccc2O1 | -1.9
C[C@H]1CN([C@@H](C)CO)C(=O)c2cccc(NS(C)(=O)=O)c2O[C@H]1CN(C)CC1CC1 | -0.4
COc1ccc(NC(=O)Nc2ccc3c(c2)CC(=O)N([C@H](C)CO)C[C@@H](C)[C@@H](CN(C)Cc2ccc(Cl)c(Cl)c2)O3)cc1 | 1.6
COc1ccc(CN(C)C[C@@H]2Oc3ccc(NC(=O)Nc4ccc(C(F)(F)F)cc4)cc3CC(=O)N([C@@H](C)CO)C[C@@H]2C)cc1 | -0.8
SMILES | A1 apoptosis 2
C[C@@H]1CN([C@@H](C)CO)C(=O)c2cc(NC(=O)NC3CCCCC3)ccc2O[C@@H](C)CCCCO[C@H]1CN(C)Cc1ccc(Cl)c(Cl)c1 | -1.0
O=C(CCCCCCC(=O)Nc1ccccc1O)NN=C1CCCCCC1 | -1.5
CNC[C@H]1Oc2ccc(NS(=O)(=O)c3ccc(Cl)cc3)cc2C(=O)N([C@H](C)CO)C[C@@H]1C | -1.4
COc1ccc(CN(C)C[C@H]2Oc3ccc(NS(=O)(=O)c4ccccc4)cc3C(=O)N([C@H](C)CO)C[C@H]2C)cc1 | 0.2
C[C@H]1CN([C@@H](C)CO)C(=O)c2cc(NC(=O)CCCCCC(=O)Nc3ccccc3N)ccc2O[C@@H]1CN(C)S(C)(=O)=O | -0.2
C=CC1C2C(C)=CC(C3C(=O)N(C)C(=O)C32)N1Cc1ccc(OC)cc1 (stereo not drawn) | -0.2
C[C@H](CO)N1C[C@H](C)[C@H](CN(C)CC2CC2)Oc2ccc(NC(=O)CCC(F)(F)F)cc2C1=O | 0.1
Cc1ccc(S(=O)(=O)Nc2ccc3c(c2)C(=O)N([C@H](C)CO)C[C@@H](C)[C@@H](CN(C)C(=O)Nc2cccc4ccccc24)OCCCC[C@@H](C)O3)cc1 | -0.6
C[C@@H]1CN([C@@H](C)CO)C(=O)c2cc(NS(=O)(=O)c3ccc(Cl)cc3)ccc2O[C@H]1CN(C)C(=O)Nc1cccc2ccccc12 | -0.8
O=C(O)c1ccc(/C=N/NC(=O)c2cccc(C(=O)NO)c2)cc1 | 0.2
C[C@@H]1CN([C@H](C)CO)C(=O)Cc2cc(NC(=O)Nc3ccc(C(F)(F)F)cc3)ccc2O[C@H]1CN(C)Cc1ccc(Oc2ccccc2)cc1 | 0.3
C[C@H](CO)N1C[C@H](C)[C@H](CN(C)Cc2ccc(C(F)(F)F)cc2)Oc2ccc(NS(C)(=O)=O)cc2CC1=O | 0.2
C[C@@H]1CN([C@@H](C)CO)C(=O)Cc2cc(NS(=O)(=O)c3ccccc3)ccc2O[C@H]1CN(C)Cc1ccc(C(=O)O)cc1 | 0.3
C[C@H](CO)N1C[C@H](C)[C@H](CN(C)S(=O)(=O)c2ccccc2)OCCCC[C@H](C)Oc2ccc(NC(=O)Cc3ccccc3)cc2C1=O | -0.4
C[C@@H]1CCCCO[C@H](CN(C)C(=O)c2ccccc2)[C@@H](C)CN([C@@H](C)CO)C(=O)c2cc(NC(=O)NC3CCCCC3)ccc2O1 | 0.7
C[C@H](CO)N1C[C@H](C)[C@@H](CN(C)C(=O)CCC(F)(F)F)OCc2cn(nn2)CCCC1=O | 0.9
C[C@@H]1CN([C@H](C)CO)C(=O)Cc2cc(NC(=O)CCC(F)(F)F)ccc2O[C@H]1CN(C)C(=O)Nc1ccc(C(F)(F)F)cc1 | 0.1
C[C@@H]1CN([C@H](C)CO)C(=O)c2cc(NC(=O)CCN3CCOCC3)ccc2O[C@H]1CN(C)S(=O)(=O)c1ccc(F)cc1 | -0.1
COCCOC(=O)N1C(=O)[C@@]2(c3ccccc31)[C@H](C(=O)N1CCc3cc(OC)c(OC)cc3C1)[C@H]1C(=O)O[C@H](c3ccccc3)[C@H](c3ccccc3)N1[C@@H]2c1ccc(O)cc1 | 0.3
C[C@H](CO)N1C[C@H](C)[C@@H](CN(C)Cc2ccncc2)Oc2ccc(NC(=O)Nc3ccccc3)cc2C1=O | -1.2
C[C@@H]1CN([C@@H](C)CO)C(=O)c2cc(NC(=O)C3CC3)ccc2O[C@H]1CN(C)Cc1ccccc1 | -0.5
CNC[C@@H]1Oc2ccc(NC(=O)NC(C)C)cc2CC(=O)N([C@H](C)CO)C[C@@H]1C | -0.8
CC(C)NC(=O)N(C)C[C@H]1OCCCC[C@H](C)Oc2ccc(NC(=O)CCC(F)(F)F)cc2C(=O)N([C@@H](C)CO)C[C@H]1C | 1.2
C[C@H](CO)N1C[C@H](C)[C@H](CN(C)S(=O)(=O)c2ccc(F)cc2)Oc2ccc(NC(=O)Nc3ccc(C(F)(F)F)cc3)cc2CC1=O | 0.9
C[C@@H]1CN([C@H](C)CO)C(=O)c2cc(NC(=O)Cc3ccccc3)ccc2O[C@H]1CN(C)C(=O)Nc1ccccc1 | 1.1
SMILES | A1 apoptosis 2
C[C@H]1CN([C@@H](C)CO)C(=O)c2cc(NC(=O)Nc3ccc(C(F)(F)F)cc3)ccc2O[C@H]1CN(C)S(=O)(=O)c1ccc(F)cc1 | -0.2
COc1ccc(C#Cc2ccc3c(c2)[C@]2(C(=O)N3)[C@H](c3ccccc3OCCO)N3[C@H](c4ccccc4)[C@H](c4ccccc4)OC(=O)[C@H]3[C@@H]2C(=O)NC[C@H](O)c2ccccc2)cc1 | -1.0
C[C@@H]1CCCCO[C@@H](CN(C)C(=O)CCC(F)(F)F)[C@H](C)CN([C@@H](C)CO)C(=O)c2cc(NC(=O)Nc3ccccc3)ccc2O1 | 1.4
Cc1noc(C)c1NC(=O)Nc1ccc2c(c1)CC(=O)N([C@H](C)CO)C[C@H](C)[C@H](CN(C)C(=O)NC(C)C)O2 | -0.3
CNC[C@@H]1OCCCC[C@H](C)Oc2ccc(N(C)C)cc2C(=O)N([C@@H](C)CO)C[C@@H]1C | -1.1
C[C@H](CO)N1C[C@H](C)[C@@H](CN(C)Cc2ccncc2)Oc2c(NC(=O)CCCCCC(=O)Nc3ccccc3N)cccc2C1=O | 0.9
C[C@H](CO)N1C[C@H](C)[C@@H](CN(C)Cc2ccc3c(c2)OCO3)Oc2ccc(NC(=O)CCCN(C)C)cc2C1=O | -1.7
C[C@H](CO)N1C[C@H](C)[C@@H](CN(C)S(=O)(=O)c2cn(C)cn2)Oc2c(NC(=O)c3cnccn3)cccc2C1=O | -0.5
C[C@@H]1CCCCO[C@@H](CN(C)S(=O)(=O)c2cn(C)cn2)[C@H](C)CN([C@@H](C)CO)C(=O)c2cc(NC(=O)CCC(F)(F)F)ccc2O1 | -0.7
C[C@@H]1CN([C@@H](C)CO)C(=O)c2cccc(NC(=O)c3ccncc3)c2O[C@@H]1CN(C)S(C)(=O)=O | 0.3
COc1ccc(S(=O)(=O)N(C)C[C@H]2OCCCC[C@H](C)Oc3ccc(NS(C)(=O)=O)cc3C(=O)N([C@@H](C)CO)C[C@H]2C)cc1 | -0.9
C[C@@H]1CCCCO[C@@H](CN(C)Cc2ccc(Cl)c(Cl)c2)[C@H](C)CN([C@H](C)CO)C(=O)c2cc(N(C)C)ccc2O1 | 1.3
COc1ccc(CN(C)C[C@@H]2OCCCC[C@@H](C)Oc3ccc(NC(=O)NC4CCCCC4)cc3C(=O)N([C@H](C)CO)C[C@H]2C)cc1 | 1.3
C[C@@H]1CCCCO[C@H](CN(C)S(=O)(=O)c2ccc(Cl)cc2)[C@H](C)CN([C@@H](C)CO)C(=O)c2cc(NS(=O)(=O)c3ccc(F)cc3)ccc2O1 | -0.7
C[C@H]1CCCCO[C@H](CN(C)Cc2ccc(Cl)c(Cl)c2)[C@@H](C)CN([C@@H](C)CO)C(=O)c2cc(NS(=O)(=O)c3ccccc3)ccc2O1 | -1.7
Cc1noc(C)c1NC(=O)Nc1ccc2c(c1)C(=O)N([C@@H](C)CO)C[C@H](C)[C@H](CN(C)C(=O)Nc1ccc(C(F)(F)F)cc1)O2 | -0.1
COc1ccc(CN(C)C[C@@H]2Oc3c(NS(=O)(=O)c4ccc(F)cc4)cccc3C(=O)N([C@H](C)CO)C[C@@H]2C)cc1 | 1.2
C[C@@H]1CCCCO[C@H](CN(C)Cc2ccccc2)[C@@H](C)CN([C@@H](C)CO)C(=O)c2cc(NS(=O)(=O)c3ccccc3)ccc2O1 | 0.5

Reprinted at random: three compounds from above
SMILES | A1 apoptosis 2
C[C@@H]1CN([C@H](C)CO)C(=O)c2cccc(NS(=O)(=O)c3ccc(Cl)cc3)c2O[C@@H]1CN(C)C(=O)Nc1cccc2ccccc12 | -1.6
C[C@@H]1CCCCO[C@@H](CN(C)C(=O)CCC(F)(F)F)[C@H](C)CN([C@@H](C)CO)C(=O)c2cc(NC(=O)Nc3ccccc3)ccc2O1 | 1.4
Cc1noc(C)c1S(=O)(=O)Nc1ccc2c(c1)C(=O)N([C@@H](C)CO)C[C@@H](C)[C@H](CN(C)S(=O)(=O)c1ccc(Cl)cc1)O2 | -0.6

Structural class: the compounds so far with a COOH group
SMILES | A1 apoptosis 2
C[C@H]1CN([C@@H](C)CO)C(=O)c2cccc(NC(=O)C3CCOCC3)c2O[C@H]1CN(C)Cc1ccc(C(=O)O)cc1 | 0.8
O=C(O)c1ccc(/C=N/NC(=O)c2cccc(C(=O)NO)c2)cc1 | 0.2
C[C@@H]1CN([C@@H](C)CO)C(=O)Cc2cc(NS(=O)(=O)c3ccccc3)ccc2O[C@H]1CN(C)Cc1ccc(C(=O)O)cc1 | 0.3
